Compound activity: PubChem, ICCB-Longwood Screening Facility, Harvard Medical School
GIV Gai3 FP: blocks GIV peptide binding to rat Galpha-i3; Galpha-i3/FITC-GIV peptide fluorescence polarization, 90 min; active compounds read low; scaled: aluminum fluoride 0%, vehicle 100%; actives 0.42% (n = 210,000); percent of control (FP), % (test concentration not listed); AID 1224905; P08753;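 active = replicate mean at 85% of control or lower, very high polarization wells dropped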;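 note: lower values mean more displacement of the GIV peptide from Galpha-i3; wells of about 15 µL received 100 nL stock; the first replicate is given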
Target sequence (P08753 whole entry, looked up): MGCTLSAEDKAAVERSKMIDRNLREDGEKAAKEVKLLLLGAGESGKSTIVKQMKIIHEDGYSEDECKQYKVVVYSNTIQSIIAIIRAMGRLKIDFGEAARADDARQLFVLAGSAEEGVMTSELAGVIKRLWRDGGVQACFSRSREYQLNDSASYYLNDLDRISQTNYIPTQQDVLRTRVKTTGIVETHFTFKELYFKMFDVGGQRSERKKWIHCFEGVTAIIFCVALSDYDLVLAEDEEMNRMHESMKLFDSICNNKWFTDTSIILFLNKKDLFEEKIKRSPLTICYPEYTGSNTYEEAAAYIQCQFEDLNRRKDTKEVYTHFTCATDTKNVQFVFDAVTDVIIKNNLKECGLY
Starred values were filed as active, the others as inactive. These rows are one share of the data (hit frequency here may not be typical).

SMILES	GIV Gai3 FP
CC(C)(C)C1CCc2c(sc3nc(-c4ccccc4)oc(=O)c23)C1 (stereo not drawn)	116
Cn1c(N2CCC(C(=O)NCCCN3CCOCC3)CC2)cc(=O)n(C)c1=O	100
Cn1c(=O)c([N+](=O)[O-])c(NCC2CCCO2)c2ccccc21 (stereo not drawn)	103
N=C1S/C(=C\c2cn[nH]c2-c2ccc(Cl)cc2)C(=O)N1c1nonc1N	118
COc1ccc(NC(=O)c2cc3c(C)nn(-c4ccc(Cl)cc4)c3s2)c(OC)c1	99
O=C(Nc1ccc2c(c1)OCO2)c1nnc(C2CCN(C(=O)C3CCC3)CC2)s1	100
Cn1cnnc1SCC(=O)n1c2c(c3ccccc31)CCCC2	109
O=C(Nc1ccc(Sc2nc3ccccc3n3nnnc23)cc1)c1ccccc1	100
O=S(=O)(c1ccc(Cl)cc1)N1CCn2cccc2C1c1ccccc1 (stereo not drawn)	104
Cc1cc(C)cc(NC(=O)N2CCN(Cc3cc(=O)n4nc(-c5ccc(Cl)cc5)sc4n3)CC2)c1	96
COc1cc(C2Nc3ccc4ccccc4c3C3=C2C(=O)CC(C)(C)C3)c(Br)cc1OCc1ccc(Cl)cc1Cl (stereo not drawn)	108
Cc1cc(C)c(C)c(S(=O)(=O)N2CCC(c3noc(-c4cccc(F)c4)n3)CC2)c1C	100
Cc1ccc(C(=O)[C@@H]2[C@@H](c3ccccc3)C(C#N)(C#N)[C@H]3C=Cc4ccccc4N23)cc1	109
c1ccc(-c2ccc(-c3cnc4n3CCCCC4)cc2)cc1	108
Cc1cccc(C)c1Nc1c(-c2ccccc2O)nc2cnc(Br)cn12	146
CC1=NN(c2ccc(Cl)c(C(=O)O)c2)C(=O)/C1=C/c1ccc(-c2ccccc2[N+](=O)[O-])o1	104
O=c1c2cc3c(cc2nc(SCc2nc(-c4ccccc4Br)no2)n1C1CC1)OCO3	101
O=C(Nc1ccc(F)cc1Cl)C1CCN(c2ncnc3onc(-c4ccc(F)cc4)c23)CC1	106
COc1ccccc1N1CCN(C(=O)CSc2nc(NCc3ccc(Cl)cc3)c3ccccc3n2)CC1	97
CCOC(=O)c1cnc2c(OC)cccc2c1N1CCN(c2cccc(Cl)c2)CC1	106

Reprinted from the part before: 4 entries, followed by the next part.
SMILES	GIV Gai3 FP
O=c1c2cc3c(cc2nc(SCc2nc(-c4ccccc4Br)no2)n1C1CC1)OCO3	101
O=C(Nc1ccc(F)cc1Cl)C1CCN(c2ncnc3onc(-c4ccc(F)cc4)c23)CC1	106
COc1ccccc1N1CCN(C(=O)CSc2nc(NCc3ccc(Cl)cc3)c3ccccc3n2)CC1	97
CCOC(=O)c1cnc2c(OC)cccc2c1N1CCN(c2cccc(Cl)c2)CC1	106
O=C(NCc1ccc2c(c1)OCO2)c1nc(-c2ccc(S(=O)(=O)N3CCCCC3)cc2)no1	101
COc1ccc(-c2cn3c4c(=O)n(C)c(=O)n(C)c4nc3n2-c2ccccc2)cc1	105
Ic1cccc(-c2nc3ccccc3nc2-c2cccc(I)c2)c1	110
CC1(C)CC(=O)C2=C(C1)OC1=C(C(=O)CC(C)(C)C1)C2c1ccc(OCC(=O)N2CCOCC2)cc1	104
N#CC1(C#N)C(c2cccc(I)c2)C(C(=O)c2ccccc2)N2c3ccccc3C=CC21 (stereo not drawn)	111
CCS(=O)(=O)N1CCN(c2ncnc3c2nnn3-c2ccc(OC)cc2)CC1	100
CCCCOc1cccc(NC(=O)CSc2nc(C)cc(C)c2C#N)c1	117
Cc1cc(C2CCCN2Cc2cccc(F)c2)no1 (stereo not drawn)	108
O=C1c2cc([N+](=O)[O-])cc3cc([N+](=O)[O-])cc(c23)C(=O)N1c1ccc(Br)cn1	112
Cc1nc2ccccc2c(=O)n1-c1ccc(NC(=O)c2ccc(C(C)C)cc2)cc1	108
Cc1nn2c(c1-c1ccc(Cl)c(S(=O)(=O)NC3CC3)c1)NC(=O)CCC2=O	104
CCCN1C(=O)c2ccccc2Sc2cc(-c3noc(CN4C(=O)COc5ccccc54)n3)ccc21	99
CCN1CCCC1CNS(=O)(=O)c1ccccc1-c1nc(-c2ccc(C)cc2)no1 (stereo not drawn)	106
CSc1nc2c(sc(=S)n2-c2ccccc2)c(=O)n1Cc1ccco1	105
O=C1C2C(c3ccccc3)CCC(c3ccccc3)C2C(=O)N1c1ccccc1 (stereo not drawn)	108
COc1ccc(Cl)cc1-n1c(=S)sc2c(=O)[nH]c(SCC(=O)NCc3ccco3)nc21	105
O=C(c1cc2cc(Br)ccc2o1)N1CCc2c([nH]c3ccccc23)C1c1ccc(Cl)cc1 (stereo not drawn)	113
Cc1noc(C)c1S(=O)(=O)N1CCC(CC(=O)N2CCN(C(=O)C3CC3)CC2)CC1	109
Cn1c2c(c(=O)n(C)c1=O)C(c1cc(Cl)ccc1Cl)C1=C(N2)c2ccccc2C1=O (stereo not drawn)	106
CCN(CC)c1ncnc2sc(C(=O)NCCN3CCOCC3)c(C)c12	118

Continued, starting with the last 5 of the part before.
SMILES	GIV Gai3 FP
COc1ccc(Cl)cc1-n1c(=S)sc2c(=O)[nH]c(SCC(=O)NCc3ccco3)nc21	105
O=C(c1cc2cc(Br)ccc2o1)N1CCc2c([nH]c3ccccc23)C1c1ccc(Cl)cc1 (stereo not drawn)	113
Cc1noc(C)c1S(=O)(=O)N1CCC(CC(=O)N2CCN(C(=O)C3CC3)CC2)CC1	109
Cn1c2c(c(=O)n(C)c1=O)C(c1cc(Cl)ccc1Cl)C1=C(N2)c2ccccc2C1=O (stereo not drawn)	106
CCN(CC)c1ncnc2sc(C(=O)NCCN3CCOCC3)c(C)c12	118
O=C1C2C3c4ccccc4C(c4ccccc43)C2C(=O)N1c1ccccc1Cl (stereo not drawn)	104
NC(=O)C1CCN(C(=O)c2ccc3c(=O)n(Cc4ccco4)c(SCc4ccccc4Cl)nc3c2)CC1	109
Fc1ccccc1N1CCN(c2ncnc3c2cnn3-c2ccc(Cl)cc2)CC1	106
Cc1cc([N+](=O)[O-])ccc1S(=O)(=O)n1nnc2ccccc21	121
COC(=O)c1ccc(N2N=C(C)/C(=C/c3ccc(OCc4ccc(Cl)cc4)c(OC)c3)C2=O)cc1	103
CC1(C)CC(=O)C(C2=NC3(CCCCC3)Cc3ccccc32)=C(O)C1	111
CCCS(=O)(=O)c1nc2ccc(NS(=O)(=O)c3ccc(F)c(Cl)c3)cc2s1	106
COC(=O)CSc1nc(C)c(C(=O)Nc2ccccc2)c(-c2ccc(OC)c(OC)c2)c1C#N	105
O=c1/c(=C/c2cc(Cl)ccc2OCc2ccccc2Cl)sc2nc3ccccc3n12	109
O=C(c1ccc2c(c1)OCO2)N1CCN(c2ncnc3c2nnn3-c2cccc(F)c2)CC1	101
CC(C)(C)c1ccc(-c2nc(NCc3ccco3)c3ccccc3n2)cc1	109
CCCCOc1ccc2c(c1)/C(=C(\C(Cl)=C(Cl)Cl)[N+](=O)[O-])N2	111
O=C(Nc1ccc(Br)cc1F)c1cc(S(=O)(=O)NCc2ccc3c(c2)OCO3)ccc1F	109
O=S(=O)(c1ccccc1-c1nc(-c2ccccc2)no1)N1CCN(C2CCCCC2)CC1	103
C=CC1Oc2ccc(Br)cc2NC12C=C(C(C)(C)C)C(=O)C(C(C)(C)C)=C2 (stereo not drawn)	107
CC1(C)CC(=O)C2=C(C1)c1c(ccc3ccccc13)NC2c1cc([N+](=O)[O-])ccc1N1CCOCC1 (stereo not drawn)	111
O=C(Nc1ccc(N2CCCC2)c(Cl)c1)c1ccc2c(c1)OCCO2	107
Cc1noc(C)c1CCC(=O)NC1CCN(c2ncnc3c2CCC3)C1 (stereo not drawn)	101
CCOc1ccc(C2C(N3C(=O)c4ccccc4C3=O)C(=O)N2c2ccc(Cl)cc2)cc1 (stereo not drawn)	111
CCOc1ccc(C2C(N3C(=O)c4ccccc4C3=O)C(=O)N2c2ccc(C)c(C)c2)cc1 (stereo not drawn)	112

Some values from the list:
In GIV Gai3 FP, C=CC1Oc2ccc(Br)cc2NC12C=C(C(C)(C)C)C(=O)C(C(C)(C)C)=C2 (stereo not drawn) has the entry 107
In GIV Gai3 FP, O=S(=O)(c1ccccc1-c1nc(-c2ccccc2)no1)N1CCN(C2CCCCC2)CC1 has the entry 103
In GIV Gai3 FP, O=C(Nc1ccc(Br)cc1F)c1cc(S(=O)(=O)NCc2ccc3c(c2)OCO3)ccc1F has the entry 109
In GIV Gai3 FP, O=C(c1ccc2c(c1)OCO2)N1CCN(c2ncnc3c2nnn3-c2cccc(F)c2)CC1 has the entry 101
In GIV Gai3 FP, NC(=O)C1CCN(C(=O)c2ccc3c(=O)n(Cc4ccco4)c(SCc4ccccc4Cl)nc3c2)CC1 has the entry 109

Later entries:
SMILES	GIV Gai3 FP
CCOC(=O)C1=C(N)n2c(s/c(=C\c3ccc(Br)cc3)c2=O)=C(C#N)C1c1ccc(Br)cc1 (stereo not drawn)	105
Cc1ccc2c(=O)c(-c3nc(-c4ccc(Cl)cc4)no3)cn(CC(=O)Nc3cc(F)ccc3F)c2n1	134
CCC1CCCCN1C(=O)c1ccc(N2CC3CC(C2)c2cccc(=O)n2C3)c(NS(=O)(=O)c2ccc(NC(C)=O)cc2)c1 (stereo not drawn)	106
CCOC(=O)c1sc2ncnc(NCc3ccccn3)c2c1C	114
NC(=O)C1CCN(C(=O)c2ccc3c(c2)nc(SCc2cccc([N+](=O)[O-])c2)n2c4ccccc4nc32)CC1	106
CC12CCC(C(=O)N(CC(O)Cn3c4ccc(Cl)cc4c4cc(Cl)ccc43)C1=O)C2(C)C (stereo not drawn)	102
O=C(CSc1ncnc2c(-c3ccccc3)c[nH]c12)Nc1cccc(F)c1	109
CCOc1ccc(C2(O)CN(c3cccc(C)c3C)C3=[N+]2CCCS3)cc1 (stereo not drawn)	106
COc1ccc(OC)c(NC(=O)CSc2nc3n[nH]c(C)c3c(=N)n2-c2cccc(Cl)c2C)c1	101
Cc1ccc(-c2csc(Cc3nc(-c4ccc5c(c4)OCO5)no3)n2)cc1	103
CCOC(=O)c1ccccc1Nc1c(C(=O)OCC)cnc2ccc(OCC)cc12	115
Cc1ccc(-n2c(SCC(=O)c3cccc([N+](=O)[O-])c3)nc3[nH]ncc3c2=O)cc1C	106
CC(C)(NC(=O)c1cnccn1)c1nc2c(c(C(N)=O)n1)OCO2	113
Cc1cccc(CNC2=NCCNC23CCN(S(=O)(=O)c2ccc(C)c(C)c2)CC3)c1	102
CCOC(=O)c1sc(=S)n(-c2ccc(Cl)cc2)c1N	100
CC(C)(C)C(=O)N1CCCC(c2ccnc(Nc3cccc(F)c3)n2)C1 (stereo not drawn)	101
Cc1nnc2sc(-c3ccc(CNC(=O)c4cncc(Br)c4)cc3)nn12	104
COCC(=O)N1CCCC(C)(C(=O)NCc2ccccc2)C1 (stereo not drawn)	117
OC1(c2ccc(F)cc2)CN(c2ccc(Br)cc2)C2=[N+]1CCCS2 (stereo not drawn)	95
Cc1ccc(-c2ccc(=O)n(CCc3nc(-c4ccc5c(c4)OCO5)no3)n2)cc1	107

A stretch from further up, as a working copy:
SMILES	GIV Gai3 FP
OC1(c2ccc(F)cc2)CN(c2ccc(Br)cc2)C2=[N+]1CCCS2 (stereo not drawn)	95
Cc1ccc(-c2ccc(=O)n(CCc3nc(-c4ccc5c(c4)OCO5)no3)n2)cc1	107

The list continues:
SMILES	GIV Gai3 FP
Cc1nc(N2CCOCC2)nc(NC2CCCCC2)c1[N+](=O)[O-]	103
c1ccc(-c2nc3c(c(N4CCCCC4)n2)C2(CCCCC2)Cc2ccccc2-3)cc1	112
Cc1ccccc1-c1cc2n(C)c(C)c(CCC(=O)NCc3ccc(Br)cc3)c(=O)n2n1	112
Cc1nc(N2CCOCC2)c2c(C)c(C(=O)NCCC3=CCCCC3)sc2n1	105
CC(=O)Nc1nc2ccc(N=Cc3nc(-c4cccc5ccccc45)oc3O)cc2s1	117
COc1cc2c(c(OC)c1OC)COC2=O	105
CC(=O)NC(Cc1c[nH]c2ccccc12)C(=O)NCCOc1cc(C)ccc1C(C)C (stereo not drawn)	114
CCCn1nccc1-c1csc(S(=O)(=O)N2CCC3(CC2)OCCO3)c1	103
CC(NC(=O)c1nnc(-c2ccc(S(=O)(=O)N(C)C)cc2)o1)c1ccccn1 (stereo not drawn)	106
CC1CCCCN1CCCNC(=O)C1CCN(c2ncc(-c3ccc(F)cc3)cn2)CC1 (stereo not drawn)	108
CC(=O)C1=NN(c2ccc(Cl)cc2)C(c2ccccc2OCc2c(Cl)cccc2Cl)N1c1ccc(Cl)c(Cl)c1 (stereo not drawn)	108
c1cc(N2CCSCC2)ncc1-c1noc(CN2CCCC2)n1	100
Cc1ccc(F)cc1N1C(=O)C(N2C(=O)c3c(Cl)c(Cl)c(Cl)c(Cl)c3C2=O)C1c1cccs1 (stereo not drawn)	107
CCN(CC)CCNS(=O)(=O)c1cc(-c2cc(C)[nH]n2)sc1C	104
CCN(CC)C(=O)c1ccc(-c2nc3cc(NS(=O)(=O)c4ccccc4F)ccc3n2C)cc1	98
COc1ccc(OC)c(C(=O)c2oc3ccc(Br)cc3c2N)c1	119
O=C(CSc1nc(N2CCc3ccccc3C2)nc2ccccc12)Nc1ccc2c(c1)OCCO2	105
O=C1CC(c2ccc(Br)cc2)c2cnn(-c3nc4ccccc4s3)c2N1 (stereo not drawn)	96
CCOC(=O)c1c(CN2CCCCC2)n(C)c2ccc(OC)c(S(=O)(=O)c3ccccc3)c12	121
COc1cccc(CNC(=O)C2CCCN2S(=O)(=O)c2cc3c(cc2C)NC(=O)CO3)c1 (stereo not drawn)	95
CCOC(=O)c1ccc(NC(=O)CSc2nc3ccccc3c(=O)n2CCCC(=O)NCCc2ccccc2)cc1	118
CCOC(=O)c1ccc(N2C(=O)C3C(c4ccccc4F)OC4(C(=O)c5ccccc5C4=O)C3C2=O)cc1 (stereo not drawn)	114
COc1cc([N+](=O)[O-])ccc1NC(=O)CSc1n[nH]c(N)n1	100
Cc1nn(-c2nc3ccccc3s2)c2c1C(c1ccc3c(c1)OCO3)CC(=O)N2 (stereo not drawn)	100
Cc1nnc(-c2ccc(S(=O)(=O)N3CCOCC3)o2)o1	102
Cc1ccc(S(=O)(=O)N2CCCC(c3nnc(C(=O)Nc4ccc(F)cc4)s3)C2)c(C)c1 (stereo not drawn)	96
Cc1nn(-c2ccc3nnc(C)n3n2)c(C)c1CCC(=O)NCCC(C)C	105
